Source: PubChem
RecA intein inh: inhibitors of M. tuberculosis RecA intein splicing; P9WHJ3; cell-free RecA intein splicing, fluorescence; inhibition, %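 (about 9 µM by stock and volumes)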; 0.75% of 290,000 active; in the data active means inhibition above about 30%;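 further: 0% = vehicle wells and 100% = reference inhibitor control wells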
Target sequence (P9WHJ3 whole entry, looked up): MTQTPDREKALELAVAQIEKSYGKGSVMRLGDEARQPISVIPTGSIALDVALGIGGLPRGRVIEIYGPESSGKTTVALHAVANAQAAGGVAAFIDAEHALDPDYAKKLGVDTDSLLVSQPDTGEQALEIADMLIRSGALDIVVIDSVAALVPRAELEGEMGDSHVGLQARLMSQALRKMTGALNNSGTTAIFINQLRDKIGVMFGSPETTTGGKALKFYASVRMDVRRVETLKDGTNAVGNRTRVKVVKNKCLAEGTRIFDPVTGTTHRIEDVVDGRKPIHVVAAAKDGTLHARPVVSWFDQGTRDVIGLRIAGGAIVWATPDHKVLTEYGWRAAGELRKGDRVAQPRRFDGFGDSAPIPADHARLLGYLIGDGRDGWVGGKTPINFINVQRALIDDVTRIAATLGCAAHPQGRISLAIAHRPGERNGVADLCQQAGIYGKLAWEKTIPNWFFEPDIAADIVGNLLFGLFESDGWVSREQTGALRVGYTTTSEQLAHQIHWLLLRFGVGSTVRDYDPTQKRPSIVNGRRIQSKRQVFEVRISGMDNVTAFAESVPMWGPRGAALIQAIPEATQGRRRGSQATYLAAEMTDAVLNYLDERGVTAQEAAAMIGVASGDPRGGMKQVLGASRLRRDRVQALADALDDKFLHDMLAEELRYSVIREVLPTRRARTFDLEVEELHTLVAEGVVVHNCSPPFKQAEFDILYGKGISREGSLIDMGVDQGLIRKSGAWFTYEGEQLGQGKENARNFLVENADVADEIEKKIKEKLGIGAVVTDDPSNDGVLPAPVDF
YopH inh: inhibitors of Yersinia enterocolitica YopH tyrosine phosphatase; inhibition, %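 (about 10 µM by stock and volumes)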; AID 898; fluorescence Ex485/Em525; 0.16% of 140,000 active;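 active means inhibition of 50% or more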;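 further: controls were vehicle for no effect and minimum signal wells for full effect; inactives centre near -20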
Mtb H37Rv: M. tuberculosis H37Rv growth inhibitors, H37Rv strain (AID 1626); M. tuberculosis H37Rv growth inhibition; higher % means a stronger effect; inhibition, % at 10 µM; hits with a dose series show IC50 in µM; 0.95% of 220,000 active;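 active means confirmed in a dose series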;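 further: bacteria incubated seven days before Alamar blue readout; 0% = bacteria only wells and 100% = bacteria with antibiotic wells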
Arbovirus inh: blocks arbovirus infection | inhibition, % at 10 µM | AID 1251 | arbovirus infection cell-based antiviral screen | 0.37% of 200,000 active;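 active means inhibition from about 30%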;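 further: bluetongue infection of BSR cells; cell survival read as ATP light after 72 h; 0% = infected wells without compound and 100% = uninfected wells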
Mtb betalactam: beta-lactam sensitization of Mtb H37Rv. M. tuberculosis H37Rv growth with meropenem, percent inhibition; hits of this screen are not shown here. inhibition, % at 25 µM. 0.27% of 330,000 active. AID 434955;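 active means about 74% or more and at least 40 points above the plate without the antibiotic, then above 30% in a dose series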;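 further: growth measured after seven days incubation then overnight dye step; 0% = bacteria only wells and 100% = bacteria with antibiotic; twin plates without the antibiotic show which effects depend on it; some results filed as inactive read as strong as hits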
Arbovirus inh repeat: recorded beside Arbovirus inh, whose call it bears; inhibition, %; measured here: 10K subset replicate screen; many hits read low in the repeat;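 first of two repeat runs on a subset; 0% = infected and 100% = uninfected wells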
Starred values were filed as active, the others as inactive; / = not tested or not shown. An excerpt; the hit share may differ from the screen's.

SMILES	RecA intein inh	YopH inh	Mtb H37Rv	Arbovirus inh	Mtb betalactam	others
Oc1cccc(/C=N/N(Cc2ccccc2)c2ccccc2)c1	/	/	68%	-30	23
COC(=O)Cc1ccc(NC(=S)NCCCO)cc1	-3.4	-13	-4%	-4	-15
CCN=C1SCC(=O)N1c1ccc(OC)cc1	2.8	14	3%	2	7
Cc1ccc(C(C(=O)NC(C)(C)C)N(C(=O)c2csnn2)c2cccc(F)c2)o1 (configuration not stated)	-2.7	3	-1%	1	0
O=C1N=C(N2CCCC2)S/C1=C\c1ccccc1	0.2	-32	1%	-1	-4
COc1ccc([C@@H]2C[C@H](c3ccccc3)Oc3cc(OC)c(OC)c(OC)c32)cc1	6.5	/	11%	/	-2
Cc1ccc(C)c(S(=O)(=O)Nc2cc3c4c(c2)CCN4C(=O)CC3)c1	-2.0	/	/	/	-5
OCC1(Cc2ccc(Cl)cc2)CCN(Cc2ccc(Oc3ncccn3)cc2)CC1	1.8	/	-1%	-30	-6
Cc1ccc(C(=O)NCCC(=O)NCc2cc(=O)n(C)c(=O)n2C)cc1	3.8	/	/	/	-3
COc1ccc(S(=O)(=O)NNC(=O)C2CC(c3cccnc3)=NO2)cc1 (configuration not stated)	-3.1	/	5%	0	2
N#C/C(=C(/O)CO/N=C/c1ccccc1Cl)c1nc2ccccc2[nH]1	0.3	/	-3%	/	-3
O=C(Cc1ccc(Cl)cc1Cl)NC1CCCCCC1	2.4	/	/	/	0
COC(=O)CN(c1ccc(C)cc1)S(=O)(=O)c1ccc2c(c1)n(C)c(=O)c(=O)n2C	0.2	-34	4%	0	-4
O=C(CN1CCN(S(=O)(=O)c2ccc(Cl)cc2)CC1)Nc1ccc2c(c1)OCO2	47*	-34	5%	-10	-8
CCC(=O)Nc1ccc2nc(SCC(=O)N3CCOCC3)sc2c1	0.3	/	10%	2	0
CNCC(O)CN(c1ccccc1)c1ccccc1 (configuration not stated)	40*	/	-1%	6	-10
CCOC(=O)N1CCN(C(=O)C(=O)NNC(=O)COc2ccc(Cl)cc2)CC1	-1.6	-33	1%	4	1
Cc1ccc2c(=O)cc(C(=O)NC3CCS(=O)(=O)C3)oc2c1 (configuration not stated)	-1.8	/	/	/	2
Cc1cc(C)n(-c2ccc(NC(=O)C3CCCCN3C(=O)c3cc(C)oc3C)cc2)n1 (configuration not stated)	5.2	/	/	/	8
NC(=O)[C@@H]1CCCN1Cc1c(C(=O)N2CCc3ccccc3C2)nc2ccc(Cl)cn12	-3.8	/	/	/	-7
COc1cc(-c2cc(C(=O)OCC(=O)Nc3ccc4c(c3)OCO4)c3ccccc3n2)cc(OC)c1OC	0.5	-21	6%	-6	5
Cc1sc2nc(CSCC(=O)NC(C)(C)C)[nH]c(=O)c2c1C	-2.8	/	-3%	0	1
O=C(NCCOc1ccccc1)C1CCC(=O)N(CCc2ccc(Cl)cc2)C1 (configuration not stated)	-0.4	/	/	/	-17
COc1cc([N+](=O)[O-])ccc1Nc1nc(C)cc(C)n1	3.4	/	-3%	-5	-2
Cn1c2ccccc2c2cc(/C=N/NC(=O)c3ccccc3F)ccc21	7.3	/	/	/	66
CCOC(=O)c1c(NC(=O)c2ccc(S(=O)(=O)N3CCOCC3)cc2)sc2c1CCN(C(C)C)C2	-2.4	/	/	/	11
COc1ccc(NC(=O)CSc2nnnn2C2CCCC2)cc1	/	/	53%	-5	83
Cc1c(NC(=O)C(=O)/C=C(\O)c2ccc(Cl)cc2)c(=O)n(-c2ccccc2)n1C	-2.3	-10	-3%	2	-11
O=C(Nc1cccc(S(=O)(=O)N2CCOCC2)c1)c1cn(-c2ccccc2)nc1-c1ccc(F)cc1	-5.9	-29	7%	-10	-5
COc1cccc(OC)c1C(=O)NC(=S)Nc1cc(-c2nc3ccccc3[nH]2)ccc1Cl	5.2	13	15%	-15	-2

Of the compounds above, these have an aryl thioether with sulfur outside any ring.
SMILES	RecA intein inh	YopH inh	Mtb H37Rv	Arbovirus inh	Mtb betalactam	others
CCC(=O)Nc1ccc2nc(SCC(=O)N3CCOCC3)sc2c1	0.3	/	10%	2	0
COc1ccc(NC(=O)CSc2nnnn2C2CCCC2)cc1	/	/	53%	-5	83

Returning to the listing with the two entries that preceded the break.
SMILES	RecA intein inh	YopH inh	Mtb H37Rv	Arbovirus inh	Mtb betalactam	others
O=C(Nc1cccc(S(=O)(=O)N2CCOCC2)c1)c1cn(-c2ccccc2)nc1-c1ccc(F)cc1	-5.9	-29	7%	-10	-5
COc1cccc(OC)c1C(=O)NC(=S)Nc1cc(-c2nc3ccccc3[nH]2)ccc1Cl	5.2	13	15%	-15	-2
Cc1sc2ncnc(N3CCN(Cc4ccccc4)CC3)c2c1-c1ccc(F)cc1	17	/	/	/	80
COc1ccc(NC(=O)c2ccc3c(c2)n(C)c(=O)n3C)cc1	0.5	-35	-1%	-7	1	Arbovirus inh repeat=-5
O=C(O)Cn1cc(/C=C2/SC(=O)N(CC(=O)N3CCCCCC3)C2=O)c2ccccc21	/	/	1%	9	0
CC[C@@]12C(=O)N(c3cccc(F)c3)C(=O)N1[C@H](c1ccc(OC)cc1)[C@@H]1C(=O)N(C(C)(C)C)C(=O)[C@@H]12	-0.4	/	/	/	-1
C/C(=C\c1ccccc1)CN1CCC(C(=O)N2CCC(C)CC2)CC1	-3.1	9	4%	-2	-3
CCOC(=O)c1nn(-c2cccc(Cl)c2)c2nc(Nc3ccccc3)cc(=O)n12	-1.3	-19	5%	34*	2
CN(C)C(Cc1ccc(C#N)cc1)C(=O)c1ccccc1 (configuration not stated)	-1.3	-49	5%	-3	-5
CCC(=O)N1CCc2cc(S(=O)(=O)NC(Cc3ccccc3)C(=O)Nc3nccs3)ccc21 (configuration not stated)	0.6	2	-2%	4	-14
COC(=O)c1cc(S(=O)(=O)Nc2cccc(-c3cnco3)c2)oc1C	-1.2	/	/	/	-2
CN1CCN(C(=O)/C=C\C(=O)O)CC1	3.0	-20	-4%	2	-3
CC(=O)c1ccc(-n2c(C)ccc2-c2ccccc2)cc1	10	16	11%	-16	/
O=C(NCc1ccccn1)Nc1ccccc1Cl	-0.2	/	/	/	-10
COC(=O)c1cc(S(=O)(=O)NCCc2ccc(Cl)cc2)c[nH]1	2.4	/	/	/	-8
Cc1ccccc1OCC(=O)NCC(c1cccs1)N1CCOCC1 (configuration not stated)	-0.4	/	/	/	5
O=C(Cc1ccc(S(=O)(=O)N2CCOCC2)s1)Nc1ccc(N2CCOCC2)cc1	-3.4	/	-3%	8	4
CCOc1ccccc1-n1c(O)c(C=NCc2ccc3c(c2)OCO3)c(=O)[nH]c1=O	0.5	-8	-1%	2	-2
CC(C)Oc1ccc(C(=O)Nc2ccc(N(C)C)cc2)cc1	-1.4	-14	4%	-8	-2
O=C(Nc1ccccc1-c1ccccc1)C1CCCCC1	3.7	-2	12%	4	12
CCN(CC)S(=O)(=O)c1ccc(N2CCCC2)c(NC(=O)c2ccncc2)c1	0.8	/	-9%	/	-8
CNC(=O)NNC(=O)c1csc(-c2ccc(C(F)(F)F)cc2Cl)n1	-1.9	/	-4%	/	28
COc1cccc(CC(=O)NNC(=O)c2c(-c3ccccc3)noc2C)c1	-0.4	/	-12%	/	0
COc1nnc(-c2ccc(N3CCOCC3)c(NC(=O)c3ccc(C)cc3)c2)c2ccccc12	2.4	-28	62%	-29	92
CCN(CC(=O)Nc1c(F)cccc1F)C(=O)C1CCN(S(=O)(=O)c2ccc(C)cc2C)CC1	1.7	/	/	/	-4
COc1cc2c(c3oc(-c4ccccc4)cc(=O)c13)C=CC(C)(C)O2	10.0	/	7%	-20	3
CCOC(=O)N1CCN(C(=O)c2cc3ccccc3o2)CC1	4.0	/	/	/	1
Cc1cc(N2CCN(c3nnnn3-c3ccccc3)CC2)n2ncnc2n1	-0.6	-14	3%	1	-9
O=C(COc1cccc(Cl)c1)Nc1cc(S(=O)(=O)N2CCOCC2)ccc1N1CCOCC1	4.5	/	-6%	/	-8
CCOC(=O)CN(C(=O)Cn1nnc2ccccc21)C(C(=O)NCCOC)c1ccccc1C (configuration not stated)	-1.1	-11	6%	0	-2
COc1ccc(S(=O)(=O)N2CCC(C(=O)Nc3ccc4c(c3)OCCO4)CC2)cc1OC	0.6	-10	-6%	-8	-11
CC(C)c1ccc(C(=O)NN2CCOCC2)cc1	-1.8	/	/	/	-10
O=S(=O)(NC1CCCCC1)c1ccc(Cl)s1	4.0	-21	6%	-2	5
Cc1cc(C(=O)COc2ccc(C#N)cc2)c(C)n1C1CC1	-2.1	/	/	/	8
CCCC(=O)Nc1nc2nc(-c3ccccc3)cc(=O)n2[nH]1	-2.7	-43	-2%	-3	-1
O=C(CCS(=O)(=O)c1ccccc1)Nc1nnc(C(F)(F)F)s1	-0.9	/	/	/	1
COc1ccc2c(c1)c(CC(=O)NCc1cc([N+](=O)[O-])ccc1O)c(C)n2C(=O)c1ccc(Cl)cc1	2.7	/	/	/	5
COC(=O)C1=C(C)NC(=O)NC1c1ccco1 (configuration not stated)	-0.8	/	7%	14	4
O=C(Oc1ccc(O)cc1)C12CC3CC(CC(C3)C1)C2	0.8	/	-6%	5	1
O=C(c1cccs1)N1CCN(c2ccc(Cl)cc2)CC1	2.6	/	/	/	-5
COC(=O)C(NC(=O)CNS(=O)(=O)c1ccc(Br)cc1)c1ccccc1 (configuration not stated)	-1.1	/	3%	4	-1
CN(Cc1ccccc1)C(=O)CC(c1ccccc1)c1cc(Cl)ccc1O (configuration not stated)	-1.6	-38	/	-9	-6
Cc1ccc(C)c2nc(Cl)c(C3NC(=O)c4ccccc4N3)cc12 (configuration not stated)	-2.3	/	15%	-18	50
CCOc1[nH]n(-c2ccccc2)c(=O)c1C=NCc1ccncc1	1.5	/	2%	13	5
CCN(CC)C(=O)/C(=C\c1cccc([N+](=O)[O-])c1)NC(=O)c1ccco1	-3.2	-32	3%	1	-9
c1ccc(Cn2nnc3c(N4CCCC4)ncnc32)cc1	3.1	-46	-2%	0	-4
COc1ccc(CC(=O)N2CCN(c3ccccc3OC)CC2)cc1OC	-1.4	/	/	/	4
COc1ccc2nc(N3C(=O)CC(Cc4cc(C)cc(C)c4)C3=O)sc2c1 (configuration not stated)	0.6	-15	/	39*	12
CN(C)c1ccc(P(=O)(CC(=O)N/N=C/c2ccc(C#N)cc2)OCCCl)cc1 (configuration not stated)	0.4	/	0%	2	1
CC1=NN(c2ccc([N+](=O)[O-])cc2)C(c2ccccc2)C1 (configuration not stated)	0.9	/	-2%	-6	-1
CN1C/C(=N\S(=O)(=O)c2ccccc2)N(C)C1=O	-2.2	-31	2%	3	/
O=C(COc1ccc(F)cc1Br)N1CCc2ccccc21	-1.3	-56	1%	5	1
Cn1cc(S(=O)(=O)Nc2ccc(Cl)cc2Cl)c(=O)n(C)c1=O	-5.1	/	/	/	-1
Cc1c(NC(=S)NC(=O)c2cc3ccccc3o2)c(=O)n(-c2ccccc2)n1C	2.4	-27	-9%	6	0
COc1ccc(C2=NOC(Cn3nc(C(=O)NCC4CC4)cc3-c3ccccc3)C2)cc1 (configuration not stated)	-1.8	/	/	/	7
Cn1cccc1Cc1nnc(SCC(N)=O)n1CCc1ccccc1	2.0	0	-16%	4	-6
COc1ccc(Cl)cc1C(=O)N1CCN=C1SC	1.5	-30	10%	-2	-6
COC(=O)Cc1c(O)ccn(Cc2ccc(F)cc2)c1=O	-7.5	-31	-1%	2	-2
C#CCOCCOCCOCCNc1nc(N2CCOCC2)nc(N2CCN(C(=O)[C@H](Cc3ccc(O)cc3)n3cc([C@@H](N)C(C)CC)nn3)CC2)n1 (some centres not stated)	-0.5	/	13%	4	-10
Cc1ccc2[nH]c(=O)c(CN(C(=O)c3cccs3)c3ccccc3)cc2c1	3.3	-17	8%	1	4
O=C(CNC(=O)Cc1ccccc1)NCc1cccc(C(F)(F)F)c1	0.8	/	/	/	-1
O=C(c1ccc(=O)[nH]n1)N1CCc2ccccc2C1	0.3	/	5%	/	4

Arranged by SMILES length (highest first): some entries from above
SMILES	RecA intein inh	YopH inh	Mtb H37Rv	Arbovirus inh	Mtb betalactam	others
COc1cc(-c2cc(C(=O)OCC(=O)Nc3ccc4c(c3)OCO4)c3ccccc3n2)cc(OC)c1OC	0.5	-21	6%	-6	5
Cc1c(NC(=O)C(=O)/C=C(\O)c2ccc(Cl)cc2)c(=O)n(-c2ccccc2)n1C	-2.3	-10	-3%	2	-11
CCN=C1SCC(=O)N1c1ccc(OC)cc1	2.8	14	3%	2	7

Next part:
SMILES	RecA intein inh	YopH inh	Mtb H37Rv	Arbovirus inh	Mtb betalactam	others
CCN(CC(=O)Nc1cc(OC)ccc1OC)Cc1nc2ccccc2c(=O)[nH]1	1.4	/	0%	-4	2
C/C(=N\NC(=O)c1nnn(-c2nonc2N)c1-c1ccc2c(c1)OCO2)c1ccc(F)cc1	-0.4	/	/	/	7
CCNc1nc(NCC)n2c(SCC(=O)Nc3ccccc3[N+](=O)[O-])nnc2n1	5.1	-23	1%	3	8
O=C(COC(=O)/C=C/c1ccccc1)NCc1ccc(Cl)cc1	-2.0	-22	-9%	3	4
